Rango-impB inh – prevents formation of the Rango-importin beta complex | Q14974 | Rango CFP/YFP FRET sensor + importin beta, 45 min | Potency, µM (top dose mostly 92.2 µM), for inactives: at the top dose inhibition of complex formation | actives 0.031% (n = 340,000) | AID 540263; active = rising FRET ratio curve, often small or poorly fitted; inconclusive = mostly compound fluorescence or quenching in the first reads; inactive = flat curves in all reads;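 also: potency is read from the fitted curve at half-maximal effect; 0% = DMSO wells and 100% = buffer wells lacking importin beta; nearly all actives have a fitted effect of over 15% in size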
Target sequence (Q14974 whole entry, looked up): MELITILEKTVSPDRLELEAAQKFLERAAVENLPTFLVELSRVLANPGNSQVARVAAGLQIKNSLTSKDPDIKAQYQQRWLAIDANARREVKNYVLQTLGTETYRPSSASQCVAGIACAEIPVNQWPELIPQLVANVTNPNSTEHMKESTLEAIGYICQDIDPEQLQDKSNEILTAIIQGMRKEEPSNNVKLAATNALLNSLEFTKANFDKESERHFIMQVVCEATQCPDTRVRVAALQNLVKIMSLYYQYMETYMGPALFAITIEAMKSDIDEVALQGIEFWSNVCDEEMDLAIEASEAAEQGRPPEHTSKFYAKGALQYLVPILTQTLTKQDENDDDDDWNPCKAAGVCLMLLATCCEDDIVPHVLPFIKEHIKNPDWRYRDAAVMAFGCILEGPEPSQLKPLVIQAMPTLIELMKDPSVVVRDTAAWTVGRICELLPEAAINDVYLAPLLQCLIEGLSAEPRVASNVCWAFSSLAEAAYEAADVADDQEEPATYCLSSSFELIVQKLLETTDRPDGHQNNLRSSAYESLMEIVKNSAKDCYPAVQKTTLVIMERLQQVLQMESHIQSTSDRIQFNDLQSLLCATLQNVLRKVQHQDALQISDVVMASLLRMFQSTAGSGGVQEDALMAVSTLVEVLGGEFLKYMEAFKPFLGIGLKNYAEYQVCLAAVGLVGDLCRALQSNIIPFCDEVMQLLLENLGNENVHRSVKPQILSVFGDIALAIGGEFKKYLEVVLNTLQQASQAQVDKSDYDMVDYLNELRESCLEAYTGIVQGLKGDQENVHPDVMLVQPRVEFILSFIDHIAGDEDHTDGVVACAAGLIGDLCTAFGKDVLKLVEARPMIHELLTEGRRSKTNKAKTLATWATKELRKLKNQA
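FRET biosensor Rango (snurportin 1 IBB between N-terminal EYFP and C-terminal Cerulean), 50 nM in PBS/1 mM DTT/0.02% Tween-20/0.1% BSA, preincubated 5 min RT with compound; 0.125 microM importin beta added, 45 min RT, CFP/YFP FRET ratio read.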
Rango dissoc inh – prevents RanGTP from dissociating the Rango-importin beta complex | O95149+P62826 | Biochemical FRET Rango-importin beta, RanGTP-induced dissociation | Potency, µM (top dose mostly 46.1 µM), for the others: at the top dose activity change, negative = inhibition | actives 0.071% (n = 340,000) | AID 540253; active means falling FRET ratio curve, often poorly fitted, with flat reads before Ran was added; inconclusive means other falling curves, or compound fluorescence or quenching; inactive means flat or rising ratio curve;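 also: potency is read from the fitted curve at half-maximal effect; % of control where 0% means no effect; nearly all actives have a fitted effect of over 45% in size; -100% = wells without RanGTP and RCC1; the record marks most hits as doubtful in a second field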
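Rango/importin beta premix (0.1/0.25 uM final), PBS + 1 mM DTT + 0.02% Tween-20 + 0.1% BSA; cpd 5 min RT; FRET pre-read; + RanGTP-RCC1 (0.6 uM Ran, 2 mM GTP, 0.2 uM RCC1); 45 min RT; FRET post-read, ex 430, em 486/530 nm.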
GLA inh pH 4.5 – inhibitors of human alpha-galactosidase A at pH 4.5. purified enzyme, 4-MU-alpha-Gal fluorescence, pH 4.5. activity change, negative = inhibition, % at 105 µM. 230,000 tested, under 10 active. AID 1467; inconclusive = small, poorly fitted or top-dose-only inhibition, or a rising curve; inactive = flat fitted curve, though single readings scatter; no compound was filed as active;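 also: 0% = full activity with enzyme and -100% = basal without enzyme; dose as in the result columns while the protocol names 77 µM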
miR-21 FLuc – miR-21 reporter, rising signal; HeLa miR-21 FLuc reporter, luciferase, 48 h; Potency, µM (highest dose often 38.3 µM), inactives show at the highest dose reporter change, positive = more light; 340,000 tested, under 10 active; AID 2288; active = well fitted rising curve with a large enough effect; inconclusive = small, poorly fitted or top-dose-only effect; inactive = no such curve, though single readings can be large or run the other way;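 also: % of control where 0% means no effect; miR-21 action dims this reporter so a rising signal means less miR-21 action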
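HeLa miR-21-FLuc reporter line, endogenous miR-21; 2000 cells/well in DMEM/10% FBS; compound titration up to ~40uM final, 48 h, 37 degree Celsius; luciferase detection reagent, 15 min lysis, CCD luminescence.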
* marks the source's active call; other numbers are inactive results; ? = inconclusive; . = no result given; & = joins results of further samples. A portion of the library, so the mix of outcomes need not match the whole.

| no. | structure | Rango-impB inh | Rango dissoc inh | GLA inh pH 4.5 | miR-21 FLuc |
| --- | --- | --- | --- | --- | --- |
| 1 | CCCC(c1nnnn1Cc1ccco1)N1CCN(c2cc(Cl)ccc2C)CC1 (stereo not given) | 0.4% | 13% | 0 | 8% |
| 2 | COc1ccc(S(=O)(=O)N2CCN(C(=O)CSC(=S)N3CCCC3)CC2)cc1 | -0.8% | -13% | . | . |
| 3 | CCCc1cc(=O)[nH]c(SCC(=O)N2CCCCCC2)n1 | -1.0% | 0% | . | . |
| 4 | CN1N=C(C(=O)N2CCCC(N3CCN(c4ccc(F)cc4)CC3)C2)CCC1=O (stereo not given) | -3.1% | 38% | . | 0% |
| 5 | NC(=O)c1cccc(-c2cnc(N)c(C(=O)c3cccnc3)n2)c1 | ? | ? | . | . |
| 6 | CN(C)C(=O)c1nc2ccc(Cl)cn2c1CNCc1cccc(OC(F)(F)F)c1 | -4.2% | 0% | -6 | -5% |
| 7 | O=C(CN1C(=O)c2ccccc2C1=O)Nc1ccccc1C(F)(F)F | 0.4% | 1% | . | 1% |
| 8 | CCOc1ccc(CCNC(=O)c2ccc(NC3=NC4CS(=O)(=O)CC4S3)cc2)cc1 (stereo not given) | -1.4% | 9% | . | -4% |
| 9 | CCCC(=O)c1c[nH]c(C(=O)NCc2cccnc2)c1 | -1.6% | -4% | -2 | 2% |
| 10 | COc1cc(OC)c(CN2CCCCCCC2)cc1Br | 5.2% | 7% | -2 | 0% |
| 11 | CCC1CCc2c(sc(NC(=O)C3CC=CCC3C(=O)O)c2C#N)C1 (stereo not given) | 1.5% | 19% | 1 | 1% |
| 12 | COc1ccccc1-n1cc(C(=O)NCC(=O)NCc2ccc(F)cc2)c2ccccc2c1=O | -5.2% | 12% | -19 | 6% |
| 13 | CCCC(=O)Nc1ccc(S(=O)(=O)Nc2nccs2)cc1 | 1.5% | 1% | . | . |
| 14 | COc1ccc(-n2c(=O)c(CCC(=O)N3CCN(c4ccccc4O)CC3)nc3ccccc32)cc1 | -1.2% | -3% | . | . |
| 15 | NCCC(=O)NC[C@H]1O[C@@H](n2cnc3c(N)ncnc32)[C@H](O)[C@@H]1O | -0.3% | -22% | . | . |
| 16 | CC(C)[C@H](NC(=O)c1ccccc1)C(=O)NC1CCCCCCC1 | 0.5% | -9% | . | . |
| 17 | COC(=O)C1=C(C)N(Cc2ccccc2)C(=NCc2cc(OC)c(OC)c(OC)c2)N[C@H]1c1ccc(Br)cc1 | ? | -15% | . | 2% |
| 18 | Cc1[nH]c(C)c(S(=O)(=O)N2CCCCC2)c1C(=O)N1CCCCC1 | -2.4% | 10% | . | -2% |
| 19 | COc1ccc2nc(NC(=O)Cc3cccs3)sc2c1 | 1.0% | -3% | 7 | -46% |
| 20 | CCN(C1CCCCC1)S(=O)(=O)CCNC(=O)c1ccc2c(c1)OCO2 | -5.0% | -5% | . | . |
| 21 | O=C(O)C1CCCN1S(=O)(=O)c1ccc(Br)cc1 (stereo not given) | 1.2% | -2% | . | 2% |
| 22 | C[C@]12CC[C@@H]3c4ccc(OS(=O)(=O)O)cc4CC[C@H]3[C@@H]1CCC2=O | 0.4%&0.3% | -5%&-8% | 7 | -3% |
| 23 | O=C1CCCC(O)=C1N=Nc1ccc2c(c1)OCO2 | 6.1% | 0% | 2 | -65% |
| 24 | CC(=O)N1CCN(C(=O)C2CCN(S(=O)(=O)c3ccccc3C(F)(F)F)CC2)CC1 | 1.6% | 0% | . | . |
| 25 | Cc1[nH]c2ccc(Br)cc2c(=O)c1CN1CCCCCC1 | ? | -16% | . | -5% |
| 26 | COCC(=O)Nc1nc2n(n1)C(c1ccc(Cl)cc1)CC(c1ccc(OC)cc1)N2 (stereo not given) | ? | ? | 3 | -2% |
| 27 | CC(C)c1cc(C(=O)OCC(=O)N2CCN(C(=O)c3ccco3)CC2)c(O)c(C(C)C)c1 | -1.5% | -1% | . | -5% |
| 28 | COc1ccc(-c2nc3c(c(=O)c4ccccc4n3C)c(=O)n2Cc2ccccc2)cc1 | 4.4% | -2% | -10 | -7% |
| 29 | CC(C)COc1ccc(C(=O)N(CC(=O)Nc2ccccc2C(F)(F)F)Cc2ccco2)cc1 | -3.3% | -13% | . | . |
| 30 | CCOc1ccc(NC(=O)Cn2nnc(C(=O)NCc3cccs3)c2N)cc1 | -3.7% | 8% | . | -11%&-21% |
| 31 | COC(=O)CN1C(C)=Nc2ccc(Br)cc2C1c1ccccc1 (stereo not given) | 1.0% | -2% | -2 | -1% |
| 32 | COCCNC(=S)NNC(=O)c1ccc(-n2cnnn2)cc1 | -0.3% | 22% | 8 | -2% |
| 33 | O=C1CCCC2=C1C1c3ccccc3C(=O)N1c1ccc(C(=O)c3ccccc3)cc1N2 (stereo not given) | 0.3% | 4% | 1 | 24% |
| 34 | COC(=O)[C@H](CC(C)C)NC(=O)NCc1ccc(Cl)cc1 | -1.5% | -1% | 0 | 2% |
| 35 | Nc1c(C(=O)O)cnc2nc(N3CCOCC3)nn12 | -0.7% | 2% | 5 | -1% |
| 36 | COc1cccc(/C=C2\SC(N)=NC2=O)c1OS(=O)(=O)c1ccccc1 | 1.7% | 0% | -7 | 3% |
| 37 | CC(C)(C)c1ccc(C(CC(=O)O)NC(=O)c2ccccc2F)cc1 (stereo not given) | 2.5% | -7% | 0 | -5% |
| 38 | Cc1ccc2oc(=O)c3cnn(CC(=O)NC4CCC(C)CC4)c3c2c1 (stereo not given) | -0.8% | -3% | -5 | -2% |
| 39 | COc1ccc(C=NOCC(=O)OCC(=O)Nc2ccc(OC)cc2)cc1 | 3.8% | -4% | . | . |
| 40 | O=C(c1cccnc1Nc1ccc2c(c1)CCC2)N1CCOCC1 | 5.1% | -12% | -4 | -15% |
| 41 | CC/C(O)=C1\C(=O)CC(c2ccccc2)CC1=NCCc1c(C)[nH]c2ccc(C)cc12 (stereo not given) | 0.7% | 14% | 1 | -1% |
| 42 | CCOC(=O)/C(C#N)=C/c1c(Oc2cc(C)cc(C)c2)nc2ccccn2c1=O | -1.9% | 14% | 3 | 0% |
| 43 | C=C(C)CCC(C)N1CCC(n2nccc2NC(=O)CCOc2ccccc2)CC1 (stereo not given) | ? | -5% | . | -1% |
| 44 | COc1ccccc1/C=C/C=N/NC(=O)c1cc(-c2ccc(C)o2)[nH]n1 | 4.7% | -15% | -14 | 15% |
| 45 | CCc1ccccc1NC1=NCC(=O)N1Cc1ccc(OC)cc1 | 1.5% | 0% | 4 | -3% |
| 46 | CCOc1ccc(C2N(c3cc(Cl)ccc3OC)C(=O)C3CCCN32)cc1OC (stereo not given) | 0.4% | 13% | -3 | 2% |
| 47 | COc1cc(/C=C/c2nc3ccccc3c(=O)[nH]2)ccc1OC(F)F | -1.3% | -15% | . | -47% |
| 48 | CC1(C)CSC(=S)N1S(=O)(=O)c1ccccc1 | -1.9% | -9% | 9 | 2% |
| 49 | CC(C)CNC(=O)C(=O)Nc1cc2c3c(c1)CCC(=O)N3CCC2 | 2.6% | -7% | . | 0% |
| 50 | C=C1C[C@H]2[C@@H]3C=C(C)C4=CC(=O)CC[C@]4(C)[C@H]3CC[C@]2(C)[C@@]1(OC(C)=O)C(C)=O | -1.3% | -22% | . | . |
| 51 | CCN(CC)CCNC(=O)CCc1n[nH]c(=O)c2ccccc12 | 3.2% | 2% | -5 | -1% |
| 52 | CN(C1CCCCC1)S(=O)(=O)c1ccc(C(=O)O)cc1 | 0.1% | -2% | 0 | -16% |
| 53 | CCSc1nnc(NC(=O)COc2ccccc2)s1 | 1.5% | 5% | 11 | -16% |
| 54 | CCNS(=O)(=O)c1ccc2nc(NC(=O)c3cccnc3)sc2c1 | 1.5% | -6% | -3 | -22% |
| 55 | Cc1ccc(N2CC(C(=O)Nc3ccc(N4CCOCC4)cc3)CC2=O)cc1C (stereo not given) | -0.7% | -18% | . | -2% |
| 56 | O=C(NC(=S)Nc1ccc(C(=O)N2CCOCC2)cc1)c1ccc([N+](=O)[O-])cc1 | 0.3% | 0% | -4 | -6% |
| 57 | Cc1ccnc(N2CCC(C(=O)NNC(=O)c3ccncc3)CC2)n1 | -0.2% | -1% | -4 | 10% |
| 58 | COc1ccc(/C=C2/CC/C(=C\c3ccc(OC)c(OC)c3OC)C2=O)c(OC)c1OC | ? | ? | -19 | 1% |
| 59 | COc1ccc(NC(=O)Cn2nnc(C(=O)NCc3cccs3)c2N)cc1 | ? | -3% | . | -16%&-20% |
| 60 | CNC(=O)c1ccsc1NC(=O)c1ccc(S(=O)(=O)N2CCCc3ccccc32)cc1 | ? | 5% | 8 | 23% |

Next section.
| no. | structure | Rango-impB inh | Rango dissoc inh | GLA inh pH 4.5 | miR-21 FLuc |
| --- | --- | --- | --- | --- | --- |
| 61 | C=CC[C@@H](Cc1ccc(F)cc1)C(=O)OC[C@H]1CCCN1C(=O)[C@H](CC=C)CC(=O)N[C@H](CO)Cc1ccccc1 | 0.0% | -4% | . | . |
| 62 | Cc1ccc(CNC(=O)CNS(=O)(=O)c2cccc3nsnc23)cc1 | 1.9% | -10% | -10 | -4% |
| 63 | Cc1cccc(NC(=O)c2cccc3c2-c2ccccc2C3=O)n1 | 0.3% | -12% | -7 | 0% |
| 64 | Cc1cc(NC(=O)c2ccco2)ncc1NC(=O)Cc1ccccc1 | 0.5% | 18% | -1 | -20% |
| 65 | CC(C)(C)c1ccc(-c2nnc(SCC(=O)NCC3CCCO3)n2N)cc1 (stereo not given) | 1.4% | 1% | . | . |
| 66 | N#C/C(=C\c1ccc(Cl)cc1)c1nc2ncccc2[nH]1 | ? | ? | -9 | -7% |
| 67 | Cc1ccccc1OCC(=O)OCC(=O)NCc1ccc2c(c1)OCO2 | -0.9% | -1% | . | . |
| 68 | O=C(COC(=O)/C=C/c1cccc(Cl)c1)NC(=O)NCc1ccccc1 | -2.0% | 11% | . | . |

By substructure: the entries above with an NH in an aromatic ring.
| no. | structure | Rango-impB inh | Rango dissoc inh | GLA inh pH 4.5 | miR-21 FLuc |
| --- | --- | --- | --- | --- | --- |
| 3 | CCCc1cc(=O)[nH]c(SCC(=O)N2CCCCCC2)n1 | -1.0% | 0% | . | . |
| 9 | CCCC(=O)c1c[nH]c(C(=O)NCc2cccnc2)c1 | -1.6% | -4% | -2 | 2% |
| 18 | Cc1[nH]c(C)c(S(=O)(=O)N2CCCCC2)c1C(=O)N1CCCCC1 | -2.4% | 10% | . | -2% |
| 25 | Cc1[nH]c2ccc(Br)cc2c(=O)c1CN1CCCCCC1 | ? | -16% | . | -5% |
| 41 | CC/C(O)=C1\C(=O)CC(c2ccccc2)CC1=NCCc1c(C)[nH]c2ccc(C)cc12 (stereo not given) | 0.7% | 14% | 1 | -1% |
| 44 | COc1ccccc1/C=C/C=N/NC(=O)c1cc(-c2ccc(C)o2)[nH]n1 | 4.7% | -15% | -14 | 15% |
| 47 | COc1cc(/C=C/c2nc3ccccc3c(=O)[nH]2)ccc1OC(F)F | -1.3% | -15% | . | -47% |
| 51 | CCN(CC)CCNC(=O)CCc1n[nH]c(=O)c2ccccc12 | 3.2% | 2% | -5 | -1% |
| 66 | N#C/C(=C\c1ccc(Cl)cc1)c1nc2ncccc2[nH]1 | ? | ? | -9 | -7% |
